Bioassay records: PubChem, National Center for Advancing Translational Sciences (NCATS)
VDR inhibitor = blocks the human vitamin D receptor | P11473 | VDR-SRC2-3 peptide fluorescence polarization, 2 h | Potency, µM, inactives show max response, negative = inhibition, usual class: inhibitors | 400,000 compounds, 0.93% hits | AID 504847; active = well fitted inhibition curve with a large enough effect; inconclusive = small, poorly fitted or top-dose-only effect, or another doubt; inactive = no such curve, though single readings can be large or run the other way; note: series mostly up to about 120 µM
Target sequence (P11473 whole entry, looked up): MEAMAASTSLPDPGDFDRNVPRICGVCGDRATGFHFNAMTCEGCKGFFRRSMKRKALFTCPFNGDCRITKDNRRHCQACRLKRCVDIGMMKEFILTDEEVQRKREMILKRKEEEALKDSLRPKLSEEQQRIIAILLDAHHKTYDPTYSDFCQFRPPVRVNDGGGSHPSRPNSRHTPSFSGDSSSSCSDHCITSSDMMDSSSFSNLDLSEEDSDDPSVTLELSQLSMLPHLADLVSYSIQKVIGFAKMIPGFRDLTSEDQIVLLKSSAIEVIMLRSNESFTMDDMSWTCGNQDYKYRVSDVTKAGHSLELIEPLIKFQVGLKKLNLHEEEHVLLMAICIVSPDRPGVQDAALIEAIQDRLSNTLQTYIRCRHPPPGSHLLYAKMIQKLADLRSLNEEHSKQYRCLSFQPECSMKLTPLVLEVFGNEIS
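After 23 nl compound addition and a short centrifugation, plates sat for 2 hours at ambient temperature; polarization of fluorescence then indicated loss of VDR binding to peptide SRC2-3.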
* hit, by the source's call; u = inconclusive. % is set by controls: 0 for no effect and ±100 for the full control effect; potency is the fitted concentration of half-maximal effect.

SMILES | VDR inhibitor
CC(=O)c1ccc(NC(=O)C2CC(c3ccc(F)cc3)=NO2)cc1 (centres undefined) | 3%
Fc1ccccc1/C=N/n1c(C2CCCCC2)n[nH]c1=S | -14%
NC(=O)c1ccccc1OCC(=O)N1CCCc2ccccc21 | -9%
C[C@H](CO)N1C[C@H](C)[C@@H](CN(C)S(=O)(=O)c2cccs2)Oc2ccc(NC(=O)CCC(F)(F)F)cc2C1=O | 7%
CC(C)CC(c1nnnn1C1CCCCC1)N1CCN(C(=O)c2ccco2)CC1 (centres undefined) | -2%
CC(Oc1ccc(Cl)cc1C(N)=O)C(=O)N1CCc2ccccc21 (centres undefined) | -5%
COc1ccc(Cl)cc1NC(=O)CCS(=O)(=O)c1ccc(C)cc1 | -13%
O=C(COc1ccccc1)Nc1ccc(OCc2cc(=O)n3ccsc3n2)cc1 | -16%
CSc1cccc(NC(=S)N2CCCN(Cc3cccc(Cl)c3)C2)c1 | -1%
COc1ccc(Cn2c(C(=O)O)c(CNC3CCCC3)c3ccc(OC)cc32)cc1 | -8%
CCCC/C=C/[C@H](c1ccccc1)[C@H](CO)Cc1ccccc1 | 5%
COc1cccc(CN2CCC(Oc3ccc(C(=O)NCc4ccccn4)cc3)CC2)c1O | -6%
CCOC(=O)CSc1nnc(CSc2nc3sc4c(c3c(=O)[nH]2)CCCC4)n1-c1ccccc1 | 16%
CC(C)c1ccc(OCC(=O)Nc2ccncc2)cc1 | -8%
O=C(O)c1cc(NCc2ccc3c(c2)OCO3)ccc1N1CCOCC1 | 9%
NC(=O)C1CCN(c2nc3ccccc3nc2NS(=O)(=O)c2ccc(Br)cc2)CC1 | 10%
O=C(CN(C(=O)C1CSC(=O)C1)c1cccc(F)c1)NCc1ccc2c(c1)OCO2 (centres undefined) | -2%
CSCCC(NC(=O)c1ccco1)C(=O)N(C)CC(=O)Nc1ccccc1Br (centres undefined) | 11%
Cc1c(C)n(Cc2ccc(F)cc2)c2ccc(C(=O)Nc3ccc(Cl)cc3)cc12 | 11%
COc1ccc(CCNC(=O)CSc2nc3cc(Cl)ccc3o2)cc1OC | -4%
Oc1ccc(Cl)cc1C=NCCc1ccccc1 | -5%
O=C(COc1ccc2c(c1)OCO2)Nc1nnc(Cc2ccccc2)s1 | u
Cc1ccc2c(=O)cc(C(=O)Nc3nnc(CC(C)C)s3)oc2c1C | 19%
CC(C)Cn1c(CN2CCN(C(=O)c3ccco3)CC2)nc2c1c(=O)n(C)c(=O)n2C | u
COc1ccc(C2c3c(-c4ccccc4O)n[nH]c3C(=O)N2CCc2ccccc2)cc1 (centres undefined) | 1%
Cc1c(C(=O)N2CCC(C(=O)Nc3ccc(F)cc3)CC2)sc2nc[nH]c(=O)c12 | 1%
COCCNC(=O)c1c(CSc2ccc(Cl)cc2)noc1C(=O)NCc1ccccc1 | -8%
CCOc1ccc(NC(=O)C(CC)n2c(=O)c(-c3ccccc3NC(C)=O)nc3ccccc32)cc1 (centres undefined) | -2%
CN(CC#CCC(c1ccccc1)c1ccccc1)C(C)(C)C | -5%
COc1ccc(-c2cc(C(F)(F)F)nc(SCC(=O)N3CC(C)OC(C)C3)n2)cc1OC (centres undefined) | -21%
CCC1CN(C(=O)Nc2ccc(C(=O)O)cc2)c2cc(Cl)ccc2O1 (centres undefined) | -15%
CC(C)(C)NC(=O)COC(=O)CNC(=O)C1CCCCC1 | -8%
O=C(CCNC(=O)c1ccccc1Cl)NCCc1ccc(C(F)(F)F)cc1 | 3%
COc1ccc(NC(=O)COC(=O)CC2CCCC2)cc1 | -7%
COc1ccc(NC(=O)NNC(=O)c2cc(C3CC3)nc3ccccc23)c(OC)c1 | -17%
COc1cccc(-c2nc3c(C#N)c[nH]n3c2NC2CCCC2)c1OC | -1%
Cc1cccc(CN2CCN(CC(=O)NCc3ccc(Cl)cc3)C2=O)c1 | -5%
Cc1ccc(NC(=O)N2CCc3cc(S(=O)(=O)N4CCC(C)CC4)ccc32)cc1C | 11%
N#C/C(=C\c1cccc([N+](=O)[O-])c1)C(=O)NCc1cccnc1 | u
CC(=O)N1CCCC(C(=O)c2ccc3c4c(cccc24)CC3)C1 (centres undefined) | -25%

Quoted at random: five compounds from above.
SMILES | VDR inhibitor
N#C/C(=C\c1cccc([N+](=O)[O-])c1)C(=O)NCc1cccnc1 | u
Cc1ccc2c(=O)cc(C(=O)Nc3nnc(CC(C)C)s3)oc2c1C | 19%
O=C(CN(C(=O)C1CSC(=O)C1)c1cccc(F)c1)NCc1ccc2c(c1)OCO2 (centres undefined) | -2%
Cc1c(C)n(Cc2ccc(F)cc2)c2ccc(C(=O)Nc3ccc(Cl)cc3)cc12 | 11%
CN(CC#CCC(c1ccccc1)c1ccccc1)C(C)(C)C | -5%

More records:
SMILES | VDR inhibitor
COc1ccccc1/C=C/C(=O)c1ccc(NC(C)=O)cc1 | u
COc1ccc(C(=O)NNC(=O)CSc2nnc(COc3ccccc3)n2C)cc1 | -3%
CCc1cc2c(SCC(=O)c3cccs3)ncnc2s1 | -24%
COc1ccc(NC(=O)c2sc3nc(C)nc(N4CCN(c5ccccn5)CC4)c3c2C)c(OC)c1 | -9%
CCOC(=O)C1CCN(C(=O)Nc2ccc(OC)c(OC)c2)CC1 | 0%
NC(=O)CC(NC(=O)c1ccccc1)c1ccc(NCCc2cccc(F)c2)c([N+](=O)[O-])c1 (centres undefined) | 16%
Cc1cc(Cl)ccc1NC(=O)CN(c1ccccc1Br)S(C)(=O)=O | 1%
CC1CCCC(C)N1C(=O)COC(=O)CNC(=O)c1sc2ccccc2c1Cl (centres undefined) | 0%
O=C(C1COc2cc(S(=O)(=O)Nc3ccc(Cl)cc3)ccc2O1)N1CCCC1 (centres undefined) | -8%
Cc1cc2c(=O)n(CC(=O)NCC(=O)N3CCN(Cc4ccccc4)CC3)cnc2s1 | -12%
CCn1c(C(=O)OC)cc2c1ccn2-c1ccc(F)cc1 | u
OC(COc1ccccc1)CN1CCC(Cc2ccccc2)CC1 (centres undefined) | 10%
COc1ccc(CC(=O)NCc2ccc(Cl)cc2)cc1S(=O)(=O)N1CCOCC1 | -23%
O=C(/C=C/c1ccco1)Nc1ccc2nn(-c3ccccc3)nc2c1 | -4%
CN(C)S(=O)(=O)c1cc(NC(=O)CN2CCCc3ccccc32)ccc1Cl | -23%
CCOc1ccc2nc(NCCCNS(=O)(=O)c3ccc(F)cc3)c(C#N)cc2c1 | -8%
O=C(NC(Cc1ccccc1)C(=O)O)/C(=C\c1ccccc1)NC(=O)c1ccco1 (centres undefined) | -17%
Cc1ccsc1C(=O)Nc1ccc(C(=O)O)cc1 | -7%
CCN(C(=O)c1cc2c(=O)[nH]c3ccc(C)cc3c2s1)c1ccc(F)cc1 | -22%
COc1ccc(NC(=O)CN(C)C(=O)c2ccc3ccccc3c2)cc1 | 5%
CCOc1ccc(C2=CC(c3cc(Br)ccc3F)n3ncnc3N2)cc1Cl (centres undefined) | 11%
O=C(NC(=O)c1ccccc1O)c1ccc(C(F)(F)F)cc1 | -12%
COc1ccc(CNC(=O)Cn2ncn3nc(-c4cccs4)cc3c2=O)cc1 | 8%
COc1ccc(C)cc1S(=O)(=O)N(C)CC(=O)N1CCN(C)CC1 | 9%
Cn1cccc1/C=N/N1CCN(c2ccccn2)CC1 | -6%
Cc1ccc(CNC(=O)c2c(-c3ccc(F)cc3F)noc2C)o1 | 15%
COc1ccc2c(c1)[nH]c1c(Cl)ncnc12 | -12%
CCC1CCCCN1C(=S)Nc1cccc(S(=O)(=O)N(C)C)c1 (centres undefined) | -5%
FC(F)(F)COc1nc(N/N=C/c2cccnc2)nc(N2CCCCC2c2ccccn2)n1 (centres undefined) | -18%
FC(F)(F)c1cccc(NC(=S)NCc2ccccn2)c1 | 2%
CCc1ccc(NC(=O)CN(c2ccc3c(c2)OCO3)S(=O)(=O)c2c(C)noc2C)cc1 | -10%
CCC1=C2CC[C@H]3C(=O)N(CC(=O)OC)C(=O)[C@H]3[C@H]2[C@@]2(C)C(=NCC(=O)OC)OC(=O)N2C1=O | -7%
CCCC(=O)Nn1cnc2c(c1=O)C1(CCCCC1)Cc1ccccc1-2 | 3%
Fc1ccc(C(NCCc2ccc(Cl)cc2)c2nnc(-c3ccccc3Cl)o2)cc1 (centres undefined) | 9%
O=C(CCSc1ccc(Cl)cc1)N1CCCCCC1 | 10%
CSCc1cc(N(C)c2ccccc2)nc(-c2ccccn2)n1 | -18%
S=C(c1ccc(Br)cc1)N1CCN(Cc2ccccc2)CC1 | u
CC1Oc2ccccc2OC1(O)c1ccccn1 (centres undefined) | 3%
COc1cc(CNCc2ccc(Br)cc2)cc(OC)c1 | 7%
COc1ccc(NC(=O)c2cncc(Br)c2)cc1S(N)(=O)=O | 2%
CCSc1ccc(NC(=O)c2cccnc2)cc1 | 4%
CNC(=O)N(O)C1N(/N=C/c2cc(Br)ccc2O)C(=S)SC1(C)C (centres undefined) | -17%
CCOc1ccccc1Oc1c(C)oc2c(CN3CCN(CCO)CC3)c(O)ccc2c1=O | 13%
Cc1ccc(C2CC(c3ccc(NS(C)(=O)=O)cc3)=NN2C(=O)c2ccco2)cc1 (centres undefined) | 2%
COc1ccc(C(=O)N(C)Cc2ccc(C)o2)cc1OC1CCN(C(C)C)CC1 | -15%
Cc1ccc(NC(=S)NC(=O)C2CCCCC2)c(Br)c1 | 18%
Cn1nnc(NC(=O)/C=C/c2ccco2)n1 | -1%
O=C(NCc1ccccn1)c1ccc(/C=N/O)nc1 | -2%
CC(=O)Nc1cc2c3ccccc3n(C)c2cc1[N+](=O)[O-] | -21%
OCCN(/C=N/c1nc(-c2ccc(Br)cc2)cs1)CCO | 4%
COc1ccc(NC(=O)Cn2c(=O)c(-c3cc(C)ccc3NC(C)=O)nc3ccccc32)c(OC)c1 | 10%
Cc1ccc(CSc2nc3cccnc3n2Cc2nc(-c3ccccc3F)oc2C)cc1 | 8%
O=C(c1cccc([N+](=O)[O-])c1)N1CCN(S(=O)(=O)/C=C/c2ccccc2)CC1 | 3%
O=C1CC(SC(=Nc2ccccc2)Nc2ccccc2)C(=O)N1c1ccc(Cl)c(Cl)c1 (centres undefined) | 13%
CCOC(=O)CNC(=S)N(Cc1cccs1)C1CCCCC1 | 4%
CCOc1ccc(-c2nnc(SCC(=O)N(CC)c3cccc(C)c3)o2)cc1 | 3%
COCc1nc2ccccc2n1Cc1ccccc1 | -2%
NNc1nc(-c2ccccc2)c2ccccc2n1 | -27%
Cc1ccccc1C=Nc1ccccc1C(N)=O | 0%
COc1cccc(/C=C/C(=O)OCC(=O)Nc2ccc(Cl)c(S(=O)(=O)N(C)C)c2)c1 | -1%

Reformatted: entries from further up.
mol	VDR inhibitor
CNC(=O)N(O)C1N(/N=C/c2cc(Br)ccc2O)C(=S)SC1(C)C (centres undefined)	-17%
CCOc1ccccc1Oc1c(C)oc2c(CN3CCN(CCO)CC3)c(O)ccc2c1=O	13%

Filtered by structure: those above containing a cyano group
SMILES | VDR inhibitor
COc1cccc(-c2nc3c(C#N)c[nH]n3c2NC2CCCC2)c1OC | -1%
N#C/C(=C\c1cccc([N+](=O)[O-])c1)C(=O)NCc1cccnc1 | u
CCOc1ccc2nc(NCCCNS(=O)(=O)c3ccc(F)cc3)c(C#N)cc2c1 | -8%

Other entries:
SMILES | VDR inhibitor
Cc1ccc(NC(=O)COC(=O)CSCC(=O)Nc2cc(C)on2)c(C)c1 | -12%
O=C(O)CCC(=O)Nc1nc2ccccc2s1 | -3%
O=C(Cn1nc(-c2cccc(Cl)c2)ccc1=O)Nc1ccc(C(=O)NC2CC2)cc1 | -8%
Cc1c(/C=N/NC(=O)c2ccc(O)cc2)c2ccccn2c1C(=O)c1ccc(F)cc1 | -7%
COc1ccccc1Cn1c(CNS(=O)(=O)c2ccccc2Cl)nc2cccnc21 | 1%
CCCN(C(=O)c1nn(-c2ccc(OC)cc2)c(=O)c2c1c1ccccc1n2C)c1ccc(CC)cc1 | -8%
CC(C)OC(=O)/C(C#N)=C\c1cccnc1 | 9%
Cc1cc(C)cc(NS(=O)(=O)c2ccc3[nH]c(=O)ccc3c2)c1 | 15%
N#C/C(=C\c1ccccc1C(=O)O)c1nc2ccccc2[nH]1 | 6%
COc1cccc(CNC(=O)COC(=O)/C=C/c2ccc(SC)cc2)c1 | -7%
COc1ccc(CCN2C(=O)C(O)=C(C(=O)c3ccco3)C2c2cccs2)cc1OC (centres undefined) | -8%
O=C(Nc1ccnn1C1CCN(Cc2ccc(CO)o2)CC1)c1ccccc1Cl | 4%
Cc1ccc(S(=O)(=O)NCC2CCCO2)cc1[N+](=O)[O-] (centres undefined) | -1%
O=C(c1cc(-c2cccc(Cl)c2)nc2ccccc12)N1CCCC1 | 8%
COc1cc(NC(=O)c2cc(-c3cccc(Cl)c3)on2)c(OC)cc1Cl | -14%
Cc1cc(C)n(-c2ccc(Cl)c(Cl)c2)n1 | -17%
Cc1ccc(NC(=O)[C@H](Cc2c[nH]c3ccccc23)NC(=O)[C@@H]2Cc3ccccc3CN2)c(C)c1 | -13%
O=C(CN1CCC(c2nc3ccccc3[nH]2)CC1)NCc1ccc2c(c1)OCO2 | -1%
CN(c1ccccc1)S(=O)(=O)c1nnc(NC(=O)COc2ccccc2F)s1 | 15%
Cn1c(N)c(C(=O)COC(=O)CCC(=O)c2cccs2)c(=O)n(C)c1=O | 8%

Some values from the list:
CNC(=O)N(O)C1N(/N=C/c2cc(Br)ccc2O)C(=S)SC1(C)C (centres undefined) in VDR inhibitor has -17%
CC(C)(C)NC(=O)COC(=O)CNC(=O)C1CCCCC1 in VDR inhibitor has -8%

(continued)
SMILES | VDR inhibitor
Cc1ccc(OC(C)C(=O)Nc2nonc2-c2ccc(Br)cc2)cc1C (centres undefined) | 9%
CC(C)CNc1ncnc2c1nnn2C | -5%
CN(CCC#N)C(=O)COC(=O)c1ccc2[nH]c3c(c2c1)CCCC3 | -19%
CCOC(=O)c1sc(NC(=O)C(C)Sc2nc(-c3ccccc3)cc(C(F)(F)F)n2)c(C(=O)OC)c1C (centres undefined) | 0%
CCOc1ccc(CC(C(N)=O)C(N)=O)cc1 | -18%
COCCn1c(=O)c(-c2cccs2)nc2cnc(N(C)C)nc21 | -2%
CCC1(CC)NC(=O)N(CC(=O)OCC(=O)Nc2sccc2C#N)C1=O | -16%
CS(=O)(=O)N1CCC[C@@]2(CCN(C(c3ccccc3)c3ccccc3)C2)C1 | 1%

An excerpt, so the mix of outcomes need not match the whole.
